Bioassay records as filed in PubChem.
miR-21 reporter = raises the signal of a miR-21 reporter. Potency, µM (top dose mostly 38.3 µM), for the others: top-dose reporter change, positive = more light. HeLa miR-21 FLuc reporter, luciferase, 48 h. AID 2288. 340,000 tested, under 10 active; active = well fitted rising curve with a large enough effect; inconclusive = small, poorly fitted or top-dose-only effect; inactive = no such curve, though single readings can be large or run the other way;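 also: % of control where 0% means no effect; miR-21 action dims this reporter so a rising signal means less miR-21 action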
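Compounds were titrated across several concentrations (up to approximately 40 uM) and incubated 48 hours with HeLa miR-21-FLuc reporter cells (miR-21 target sequence downstream of FLuc, endogenous miR-21). Readout was firefly luciferase luminescence after lytic detection reagent.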
Rango complex inh = inhibitors of Rango-importin beta complex formation; Q14974; Rango CFP/YFP FRET sensor + importin beta, 45 min; Potency, µM (titrated, usually from 92.2 µM), inactives show top-dose inhibition of complex formation; 0.031% of 340,000 active; active = rising FRET ratio curve, often small or poorly fitted; inconclusive = mostly compound fluorescence or quenching in the first reads; inactive = flat curves in all reads;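 also: potency is read from the fitted curve at half-maximal effect; 0% = DMSO wells and 100% = buffer wells lacking importin beta; nearly all actives have a fitted effect of over 15% in size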
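Inhibition scored from the CFP 486 nm/YFP 530 nm FRET ratio 45 min after adding 0.125 microM importin beta to 50 nM Rango biosensor preincubated 5 min with compound (room temperature, PBS with DTT, Tween-20, BSA). No-importin wells as positive control.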
Rango dissoc inh = inhibition of RanGTP-driven Rango-importin beta dissociation. O95149+P62826. Biochemical FRET Rango-importin beta, RanGTP-induced dissociation. Potency, µM (titrated, usually from 46.1 µM), inactives show at the highest dose activity change, negative = inhibition. 0.071% of 340,000 active. AID 540253; active means falling FRET ratio curve, often poorly fitted, with flat reads before Ran was added; inconclusive means other falling curves, or compound fluorescence or quenching; inactive means flat or rising ratio curve;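 also: potency is read from the fitted curve at half-maximal effect; % of control where 0% means no effect; nearly all actives have a fitted effect of over 45% in size; -100% = wells without RanGTP and RCC1; the record marks most hits as doubtful in a second field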
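FRET read at 45 min, room temperature: inhibitors block the CFP/YFP signal rise when RanGTP (0.6 uM Ran, 2 mM GTP, 0.2 uM RCC1) frees Rango (0.1 uM) from importin beta (0.25 uM). Pre-read after 5 min compound exposure flags interference.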
GLA inh pH 4.5 = blocks human alpha-galactosidase A at pH 4.5 | purified enzyme, 4-MU-alpha-Gal fluorescence, pH 4.5 | activity change, negative = inhibition, % at 105 µM | 230,000 tested, under 10 active; inconclusive = small, poorly fitted or top-dose-only inhibition, or a rising curve; inactive = flat fitted curve, though single readings scatter; no compound was filed as active;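 also: 0% = full activity with enzyme and -100% = basal without enzyme; dose as in the result columns while the protocol names 77 µM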
Target sequence (P06280 whole entry, looked up): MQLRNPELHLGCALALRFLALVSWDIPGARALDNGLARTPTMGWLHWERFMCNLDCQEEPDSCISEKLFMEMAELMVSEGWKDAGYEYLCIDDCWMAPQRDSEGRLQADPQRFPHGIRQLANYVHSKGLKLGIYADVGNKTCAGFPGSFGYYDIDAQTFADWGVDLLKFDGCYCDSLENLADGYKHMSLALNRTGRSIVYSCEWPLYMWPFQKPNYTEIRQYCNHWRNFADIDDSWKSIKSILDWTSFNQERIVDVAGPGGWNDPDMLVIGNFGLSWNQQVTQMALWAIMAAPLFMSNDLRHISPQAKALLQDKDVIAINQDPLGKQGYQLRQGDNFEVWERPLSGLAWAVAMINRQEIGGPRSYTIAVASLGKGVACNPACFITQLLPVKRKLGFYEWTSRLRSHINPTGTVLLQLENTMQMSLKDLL
Starred values were filed as active, the others as inactive; ? = inconclusive; · = not tested or not shown; [ ] = dose if it differs, or a comment. The list is partial; the hit share may differ from the screen's.

miR-21 reporter	Rango complex inh	Rango dissoc inh	GLA inh pH 4.5	Molecule
-3.1%	·	·	14.0	O=C1Nc2ccccc2/C1=N\N=C\C1=C(N2CCOCC2)C(=C\c2ccccc2)/CC1
21.7%	-0.9%	-2.8%	-22.0	O=C(Nc1ccc(Cl)cc1)N1CCCN(c2ccc(C(F)(F)F)cc2[N+](=O)[O-])CC1
-4.8%	-3.1%	1.9%	-8.5	CN(CC(=O)Nc1ccc(N2CCOCC2)cc1)C(=O)COc1ccccc1F
6.3%	4.1%	3.3%	-8.8	O=C(/C=C/NNC(=O)c1cccc(Br)c1)c1ccccc1
-7.0%	0.0%	?	·	CCn1cc(C(=O)Nc2ncccc2O)c(=O)c2cc(F)c(N3CCN(C(=O)c4ccco4)CC3)cc21
0.1%	5.2%	-0.4%	1.4	COC(=O)c1oc2ccc(Br)cc2c1NC(C)=O
-6.3%	0.0%	-1.6%	2.0	C=CCNC(=O)NC(=O)COn1nnc2ccc(S(=O)(=O)N(C)C)cc21
-15.8%	2.9%	-2.5%	-12.6	COc1ccc2[nH]c(C(=O)N(Cc3ccccn3)Cc3ccccn3)cc2c1
·	-1.6%	57.7%	·	O=S(=O)(c1ccc2oc(=S)[nH]c2c1)N1CCOCC1
-13.4%	-4.4%	3.8%	-13.2	Cc1ccc(OCC(=O)NC2CC(C)(C)NC(C)(C)C2)c(C)c1
-5.2%	-2.1%	2.1%	-4.7	O=C(NCCNC(=O)c1ccc(Br)o1)c1ccc(Br)o1
-1.4%	1.7%	-7.4%	·	CCC(=O)Nc1ccc(NC(=O)c2cccc3ccccc23)cc1
-3.7%	-1.3%	-4.8%	-2.9	Cc1ccc(/C=C/C2=NN(Cc3ccc(Cl)c(Cl)c3)C(=O)CC2)cc1
-31.5%	-4.7%	-11.5%	7.1	Cc1cccc(NC(=O)CCc2ccccc2)c1
-13.9%	-1.0%	-4.7%	4.1	CC1(C)CC(=O)c2sc(NC(=O)Cc3cccs3)nc2C1
·	0.9%	5.5%	·	COc1cccc(CC(=O)Nc2ccc(S(=O)(=O)N3CCCCC3)cc2)c1
·	-0.3%	-15.5%	·	COc1ccc(NC(=O)COC(=O)CCc2nc3ccccc3c(=O)[nH]2)c(OC)c1
-23.8%	-0.6%	18.6%	0.7	CCc1c(C(=O)NNC(=S)NCCc2ccccc2)csc1C
25.5%	?	?	-3.5	O=C(/C=C/c1ccc(OCc2ccccc2)c(OCc2ccccc2)c1)c1cccnc1
·	3.3%	-23.3%	·	CCN1C[C@@H]2[C@@H]3C(=O)N(Cc4ccccc4)C(=O)[C@@H]3[C@](C)(C1=O)N2C(=O)c1ccc(C(F)(F)F)cc1
·	0.2%	-0.2%	·	Cc1cnc(C(=O)OCC(=O)N2C(C)CCCC2C)cn1 (stereo not drawn)
4.0%	-3.4%	-5.0%	·	COc1ccc(OC)c(NC(=O)COc2ccc(S(=O)(=O)N3CCCC3)cc2)c1
·	-0.6%	-4.4%	·	CC(=O)Nc1ccc(C2=CC(=O)C[C@H](c3ccc4c(c3)OCO4)C2)cc1
-0.2%	-0.2%	0.7%	-2.7	CCC1CC(/C(C)=N/NC(N)=O)OC1=O (stereo not drawn)
-35.4%	-3.3%	-4.2%	-1.7	COc1cc(C2NC(=O)NC(O)(C(F)(F)F)C2C(=O)c2cccs2)ccc1O (stereo not drawn)
-37.8%	7.8%	0.7%	3.9	COC(=O)c1ccc(C(=O)Nc2ccc(C(C)C)cc2N)cc1
-4.0%	-1.2%	-2.9%	3.0	CC(C)(C)C(=O)O/N=C(\N)c1c(Cl)cccc1Cl
3.8%	2.6%	-2.0%	·	CCc1nc(Nc2cccc(F)c2)c2oc3ccccc3c2n1
-0.5%	2.0%	17.1%	-3.0	Cc1ccc(C)c(S(=O)(=O)N2CCN(CC(=O)NC(=O)NCc3ccccc3)CC2)c1
-25.7%	0.7%	-0.2%	·	COc1ccccc1C(=O)NCCOc1ccc(C)c(C)c1
-2.2%	3.1%	-3.0%	14.3	O=C1C2CC=C(Cl)CC2C(=O)N1CCC[n+]1ccccc1 (stereo not drawn)
-4.4%	2.4%	-2.4%	1.9	COc1ccccc1NC(=O)C1=C(C)Nc2nc(-c3ccc(N(C)C)cc3)nn2C1c1ccncc1 (stereo not drawn)
·	0.3%	11.7%	·	Cc1ccc(NC(=O)c2cnc(SCC(=O)NCC3CCCO3)n(C)c2=O)cc1 (stereo not drawn)
·	-1.0%	20.2%	·	COc1ccc(C(=O)c2ccc3oc(-c4ccc(OC)cc4)c(-c4ccc(O)cc4)c3c2)cc1
-61.8%	-1.8%	-7.1%	-10.0[21.1 µM]	Cc1[nH]c2ccc(C(=O)N3CCCCC3)cc2c1C
-55.0%	3.6%	11.2%	2.5	O=C(NCCc1ccc(Cl)cc1)c1cccs1
-5.9%	-2.5%	14.0%	-9.3	CCn1cc(C(=O)NCCCN2CCC(C)CC2)c(=O)c2cc(S(=O)(=O)N3CCCC3)ccc21
4.6%	-0.7%	1.8%	2.4	CC(C)c1ccc(N=C(N)N=C(N)N)cc1
19.3%	6.6%	14.2%	-11.3	Cc1nn(-c2ccccc2)c(N2CCCC2)c1/C=N/NC(=O)c1cc(-c2cccs2)nc2ccccc12
3.4%	-4.9%	-0.1%	-0.7	CC(C)[C@H](NC(=O)c1ccc(Cl)c([N+](=O)[O-])c1)C(=O)NCc1ccc(Cl)cc1Cl
-1.9%	0.4%	-12.5%	-9.5	CCOC(=O)C1=C(N)OC2=C(C(=O)CC(C)(C)C2)C1C1CCCCC1 (stereo not drawn)
-18.9%	3.8%	27.2%	-6.9	CN1CCN(S(=O)(=O)c2ccc(NC(=S)NC(=O)c3ccc(Cl)cc3)cc2)CC1
-17.3%	1.7%	8.3%	-7.3	COc1ccc(C(=O)Nc2ccccc2C(=O)O)cc1NC(=O)C(c1ccccc1)c1ccccc1
11.7%	1.7%	3.7%	0.5	Cc1ccc(Cl)cc1N1CCN(C(=O)C2(S(=O)(=O)c3ccc(Cl)cc3)CC2)CC1
0.5%	0.6%	-3.6%	·	O=C(CNC(=O)N1CC(=O)Nc2ccccc21)Nc1cc(Cl)ccc1Cl
-4.4%	-1.0%	2.8%	1.3	CSc1ccc(NC(=O)/C=C/C(=O)O)cc1
-38.3%	-1.4%	0.5%	·	CCc1nnc(NC(=O)c2ccc(C)o2)s1
3.1%	-0.3%	27.0%	-9.0	CC1CN(C(=O)COC(=O)c2ccc(NC(=O)CC#N)cc2)CC(C)O1 (stereo not drawn)
-24.3%	0.2%	19.9%	4.8	O=C(NCCN1CCOCC1)c1cc(-c2ccc(F)cc2)on1
0.5%	4.1%	-26.5%	-14.5	CC(=O)N(Cc1cccnc1)c1cccc(-c2nc3ccccc3s2)c1

(further entries)
miR-21 reporter	Rango complex inh	Rango dissoc inh	GLA inh pH 4.5	Molecule
17.2%	0.7%	4.5%	·	COc1ccc(C(=O)NC(=S)Nc2ccc(N3CCOCC3)cc2)cc1Cl
1.6%	0.2%	-7.7%	-3.0	CCn1cc(C(=O)O)c(=O)c2cc(F)c(N3CCN(S(=O)(=O)c4ccc(NC(C)=O)cc4)CC3)cc21
0.9%	0.2%	10.2%	1.2	O=C(O)COc1ccc(Br)cc1CP(=O)(c1ccccc1)c1ccccc1
-14.9%	2.6%	-14.7%	·	CC(C)C1Oc2ccccc2N(CC(=O)NC2CCCCC2)C1=O (stereo not drawn)
-0.6%	0.4%	13.5%	-0.6	Cc1nn(-c2ccccc2)c(N)c1C(c1ccccc1)c1c(C)nn(-c2ccccc2)c1N
-60.0%	-0.1%	7.8%	·	CN(C)c1ccc(CN(C(=O)c2cc3ccccc3oc2=O)C2CCS(=O)(=O)C2)cc1 (stereo not drawn)
·	1.5%	16.6%	·	O=S(=O)(c1c(F)cccc1F)N1CCCC2CCCCC21 (stereo not drawn)
-12.0%	-2.5%	1.2%	-3.6	CCC(=O)NC(=S)Nc1ccc(NC(=O)c2ccccc2[N+](=O)[O-])cc1
-14.9%	6.0%	7.1%	-9.6	CCN(CC)CCn1c(NCc2ccc(OC)cc2)nc2ccccc21
-2.4%	0.0%	7.3%	-13.2	CC(=O)Nc1ccc(S(=O)(=O)N(C)c2ccccc2)cc1
·	?	6.7%	·	O=C(Nc1ccc2c(c1)OCO2)[C@@H]1CCCN1S(=O)(=O)c1cccc2cccnc12
-2.4%	-0.3%	8.9%	5.0	COCCNC(=S)N1CCCC(CO)C1 (stereo not drawn)
1.6%	0.5%	3.0%	7.9	C[C@@H](C(=O)Nc1nc(-c2ccccn2)cs1)N1C(=O)C2CCCCC2C1=O (stereo partly drawn)
-3.0%	1.5%	1.0%	-29.0	CN(CCOc1ccccc1)c1ccc(S(=O)(=O)N2CCCCC2)cn1
-8.1%	0.3%	0.1%	·	CC(=O)N(CCc1ccccc1C)Cc1cc2ccc(C)cc2[nH]c1=O
-6.2%	2.4%	18.7%	·	CCCn1c(O)c(N=NC(=O)CNC(=O)c2cccnc2)c2ccccc21
5.1%	4.5%	-7.1%	·	CC(=O)Nc1ccc(S(=O)(=O)N2CCN(C(=O)C3COc4ccccc4O3)CC2)cc1 (stereo not drawn)
-2.5%	1.2%	5.7%	2.4	NC(=O)[C@@H]1CCCN1Cc1nc(-c2cccs2)no1
-10.2%	3.0%	7.9%	-17.3	Clc1ccc(-c2noc(CN3CCN(c4ccccc4)CC3)n2)cc1
8.1%	-1.3%	1.7%	8.5	O=C(O)c1ccc(-c2nc(-c3ccccc3)c(-c3cccs3)[nH]2)cc1
·	-3.7%	0.7%	·	CN(C)c1ccc(C=NNC(=O)c2cccnc2)cc1
-0.5%	-1.5%	1.1%	1.7	O=c1cc(Cc2nnc(SCc3ccccc3)n2-c2ccc(Cl)cc2)[nH]c(=O)[nH]1
15.0%	-2.4%	0.4%	0.4	O=C(COC(=O)c1ccccc1C(=O)N1CCN(c2ccccc2)CC1)Nc1ccc(F)cc1
-32.0%	5.0%	2.0%	-7.0	O=C(Nc1ccc2c3c(cccc13)CC2)c1ccc(Br)o1
4.1%	-1.8%	-2.2%	·	CN(C)S(=O)(=O)c1ccc2c(c1)Cc1cc(S(=O)(=O)N(C)C)ccc1-2
11.3%	2.7%	0.4%	3.6	CC(NC(=O)c1ccco1)C(c1cccs1)N1CCN(c2ccccc2)CC1 (stereo not drawn)
-5.6%	-1.2%	-10.8%	·	CC(=O)c1ccc(N2CCN(C(=O)c3ccc(Cl)c(NC4=NC5CS(=O)(=O)CC5S4)c3)CC2)cc1 (stereo not drawn)
-15.1%	0.8%	13.5%	-10.2	Cc1ccccc1CSCCNC(=O)Nc1ccccc1
-9.2%	0.3%	-4.4%	·	CN(CC(=O)NCc1ccccc1)Cc1ccc(Cl)cc1
-47.6%	3.4%	20.3%	0.1	Cn1c(=NC(=O)C2=NNC(=O)CC2)sc2ccccc21
-2.0%	-2.9%	-14.0%	-6.0	CCOc1ccccc1Nc1nnc(SC(C)C(=O)Nc2nc(-c3ccccc3)cs2)s1 (stereo not drawn)
-4.7%	0.0%	?	4.6	CCOC(=O)N1CCC(NC(=O)c2cnn3c(C(F)(F)F)cc(-c4cccc(OC)c4)nc23)CC1
7.9%	-2.3%	20.1%	1.4	O=C(NCc1ccccc1)C1=C[C@H](c2csc3ccccc23)C[C@H](OCc2ccc(CO)cc2)O1
-1.1%	2.1%	16.4%	-0.5	O=C(O)C1CCC(N2C(=O)C3C4CCC(C4)C3C2=O)CC1 (stereo not drawn)
0.8%	1.5%	-5.4%	·	CCOC(=O)C1CCN(C(=O)C2(NC(=O)Nc3ccccc3C)CCCCC2)CC1

Complete entries, quoted from the list.
O=C(O)C1CCC(N2C(=O)C3C4CCC(C4)C3C2=O)CC1 (stereo not drawn) reads miR-21 reporter: -1.1%; Rango complex inh: 2.1%; Rango dissoc inh: 16.4%; GLA inh pH 4.5: -0.5
O=C(NCc1ccccc1)C1=C[C@H](c2csc3ccccc23)C[C@H](OCc2ccc(CO)cc2)O1 reads miR-21 reporter: 7.9%; Rango complex inh: -2.3%; Rango dissoc inh: 20.1%; GLA inh pH 4.5: 1.4
